Bioassay records as filed in PubChem BioAssay.
T. gondii HeLa: T. gondii ME49Luc in HeLa cells, luciferase assay, 72 h, no IFN-y (AID 1259421) | T. gondii ME49Luc in HeLa, luciferase, 72 h, no IFN-y; stronger effect = lower value; reference of the scale and settings of repeat entries not given here; many of its hits are not listed in these tables | activity change, negative = inhibition, % | 6,400 tested, 9.6% active;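 active = activity change below -70%; inconclusive = fit judged invalid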;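 note: about 20 µM from a 10 mM stock diluted 500-fold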
The depositor's hits bear a star; ? = inconclusive; & = joins results of further samples; ! = not confirmed by another sample. An excerpt (hit frequency here may not be typical).

SMILES	T. gondii HeLa
CCCCCCCCc1ccc(CCC(N)(CO)CO)cc1	-79.3*!
COc1ccc(-c2ccc(=N)n(CCCC(=O)O)n2)cc1	7.0&10.5
CC(C)C[C@H](NC(=O)CNC(=O)c1cc(Cl)ccc1Cl)B(O)O	-77.9*
C=CCc1ccc(O)c(-c2cc(CC=C)ccc2O)c1	-41.5
C[C@H](/C=C/[C@H](C)C(C)(C)O)[C@H]1CC[C@H]2/C(=C/C=C3C[C@@H](O)C[C@H](O)C3)CCC[C@]12C	20.9
CC(=O)Oc1ccccc1C(=O)Oc1ccccc1C(=O)O	4.3&13.9
Cc1[nH]c2ccccc2c1CCNCc1ccc(/C=C/C(=O)NO)cc1	-76.5*
COc1ccc(Cl)c(Nc2nc3ccccc3nc2NS(=O)(=O)c2cccc(NC(=O)C(C)(C)N)c2)c1	19.8
O=C(Nc1cccc2c(=O)cc(-c3nn[nH]n3)oc12)c1ccc(OCCCCc2ccccc2)cc1	13.6&3.3
C[C@]12OC(C[C@]1(O)CO)n1c3ccccc3c3c4c(c5c6ccccc6n2c5c31)CNC4=O	-87.7*
Cc1onc(-c2c(F)cccc2Cl)c1C(=O)N[C@@H]1C(=O)N2[C@@H]1SC(C)(C)[C@@H]2C(=O)O	15.1
Oc1ccc(-c2nc3cc(O)cc(Br)c3o2)cc1	-55.9
Cn1cc(C[C@@H](N)C(=O)O)c2ccccc21	16.0
O=C1NC(=O)c2cc(Nc3ccccc3)c(Nc3ccccc3)cc21	7.8
c1ccc(N2CCN(Cc3nc4ccccc4[nH]3)CC2)nc1	11.2&10.3
CC(=O)O[C@@H]1C[C@@]2(C)C(CC[C@@H]2C(C)=O)C2CCC3=CC(=O)CC[C@]3(C)C21 (stereo not given in full)	12.8
COc1cc(O)c(C)c(O)c1	11.0
C#CCN[C@@H]1CCc2ccccc21	-6.3
CC(=O)Oc1cccc(C)c1	-3.1
CCn1cc(C(=O)O)c(=O)c2cc(F)c(N3CCNCC3)cc21	20.6&1.0&37.2

The list goes on (2 carried over from the part before).
SMILES	T. gondii HeLa
CC(=O)Oc1cccc(C)c1	-3.1
CCn1cc(C(=O)O)c(=O)c2cc(F)c(N3CCNCC3)cc21	20.6&1.0&37.2
Nc1nonc1C(=Nc1ccc(F)c(Cl)c1)NO	17.0
Cn1cnc2c(NCc3ccccc3)nc(NCCO)nc21	10.2
Cc1c(NC(=O)c2cc3c(s2)CCCC3)cccc1-c1cn(C)c(=O)c(Nc2ccc(C3C(=O)N(C)CCN3C)cc2)n1 (stereo not given)	97.9
CO/N=C(/C(=O)NC1C(=O)N2C(C(=O)O)=C(CSc3nnnn3C)CSC12)c1csc(N)n1 (stereo not given)	8.8
C[C@]12C=CC(=O)C=C1CCC1C2C(=O)C[C@@]2(C)C1CC[C@]2(O)C(=O)CO (stereo not given in full)	-0.5
O=C(O)c1ccc(-c2c[nH]c3ncc(-c4ccccc4)cc23)cc1C1CCCC1	-82.2*
CC1(C)O[C@@H]2[C@@H](CO[C@@]3(COS(N)(=O)=O)OC(C)(C)O[C@@H]23)O1	10.6
CC(N)(C(=O)O)c1ccc(-c2nn[nH]n2)cc1 (stereo not given)	3.5
NC(Cc1ccc(Cl)cc1)C(=O)O (stereo not given)	2.6
CC(C)[C@H](O)C(=O)N[C@@H](C)C(=O)N[C@H]1C(=O)N(C)CCc2ccccc21	1.1
CC1(C)CC(=O)C(C2C3=C(CC(C)(C)CC3=O)Oc3ccccc32)C(=O)C1 (stereo not given)	-2.0&4.4
FC(F)(F)c1cccc(-c2noc(-c3cc(-c4ccccc4)c(C(F)(F)F)s3)n2)c1	-0.2&7.8
C=C1C(=O)O[C@@H]2/C=C(\C)CC/C=C(\C)CC[C@@H]12	9.8&18.6
CC[C@@H]1Cn2c(c3nc(-c4ccccc4)nc-3n(C)c2=O)N1	12.6&8.4
CC(C)(C)C(=O)C(Oc1ccc(Cl)cc1)n1ccnc1 (stereo not given)	11.8&17.4
Cn1cc(C(=O)OCC2CCN(CCNS(C)(=O)=O)CC2)c2ccccc21	6.2&1.9
NC[C@@H]1O[C@H](c2ccccc2)Cc2c1ccc(O)c2O	-2.5
Cc1ccsc1C(=CCCN1CCC[C@@H](C(=O)O)C1)c1sccc1C	6.5&8.2
NC(=O)CC[C@H](N)C(=O)O	10.9
Cc1ccc(OCC(O)C(C)NC(C)C)c2c1CCC2 (stereo not given)	14.3
O=C(NC(Cc1c[nH]c2ccccc12)C(=O)O)c1ccc(Cl)cc1 (stereo not given)	4.2
C[C@H](CCC(=O)O)[C@H]1CC[C@H]2[C@@H]3[C@H](O)C[C@@H]4C[C@H](O)CC[C@]4(C)[C@H]3C[C@H](O)[C@]12C	17.1
CC(C)c1onc(-c2c(Cl)cccc2Cl)c1COc1ccc(/C=C/c2cccc(C(=O)O)c2)c(Cl)c1	21.2
CC(=O)O[C@H]1C[C@@H]2CC[C@@H]3[C@H](CC[C@@]4(C)[C@H]3C[C@H]([N+]3(C)CCCCC3)[C@@H]4OC(C)=O)[C@@]2(C)C[C@@H]1[N+]1(C)CCCCC1	10.3
C[C@H](NC[C@H](O)CP(=O)(O)CC1CCCCC1)c1ccc(Cl)c(Cl)c1	1.3
COc1ccc(CNCc2cccc3ccccc23)cc1	20.7
CC(=O)NNC(=O)N1Cc2ccccc2Oc2ccc(Cl)cc21	2.5&25.6
CN1CCc2nc(C(=O)N[C@H]3C[C@H](C(=O)N(C)C)CC[C@@H]3NC(=O)C(=O)Nc3ccc(Cl)cn3)sc2C1	9.1
Oc1ccc(OCc2ccccc2)cc1	21.9&8.7
Nc1ccn([C@H]2C[C@H](O)[C@@H](CO)O2)c(=O)n1	14.7
CS(=O)(=O)c1ccc([C@@H](CC2CCCC2)C(=O)Nc2nccs2)cc1	18.1
N=C1CCCN1Cc1[nH]c(=O)[nH]c(=O)c1Cl	3.9
CC(=O)OCC(=O)[C@@]12N=C(C)O[C@@H]1C[C@H]1[C@H]3CCC4=CC(=O)C=C[C@]4(C)[C@H]3[C@@H](O)C[C@@]12C	2.5
CCN(CC)CC(=O)Oc1ccc(NC(C)=O)cc1	7.5
CC(C)=CCOc1cc2oc(=O)ccc2cc1O	-2.7
CC(C)(CO)c1cc2cc(NC(=O)C3(c4ccc5c(c4)OC(F)(F)O5)CC3)c(F)cc2n1C[C@@H](O)CO	8.0
CN1CCc2ccccc2Cc2[nH]c3ccccc3c2CC1	12.1
CN1C(CC(=O)c2ccccc2)CCCC1CC(O)c1ccccc1 (stereo not given)	6.4&6.1
CC(C)[C@H](N)C(=O)OCCOCn1cnc2c(=O)[nH]c(N)nc21	3.5&9.5
Nc1nc(Cl)nc2c1ncn2[C@@H]1O[C@H](CO)[C@@H](O)[C@@H]1F	-81.3*

Among those listed so far, ten have sulfur.
SMILES	T. gondii HeLa
COc1ccc(Cl)c(Nc2nc3ccccc3nc2NS(=O)(=O)c2cccc(NC(=O)C(C)(C)N)c2)c1	19.8
Cc1onc(-c2c(F)cccc2Cl)c1C(=O)N[C@@H]1C(=O)N2[C@@H]1SC(C)(C)[C@@H]2C(=O)O	15.1
Cc1c(NC(=O)c2cc3c(s2)CCCC3)cccc1-c1cn(C)c(=O)c(Nc2ccc(C3C(=O)N(C)CCN3C)cc2)n1 (stereo not given)	97.9
CO/N=C(/C(=O)NC1C(=O)N2C(C(=O)O)=C(CSc3nnnn3C)CSC12)c1csc(N)n1 (stereo not given)	8.8
CC1(C)O[C@@H]2[C@@H](CO[C@@]3(COS(N)(=O)=O)OC(C)(C)O[C@@H]23)O1	10.6
FC(F)(F)c1cccc(-c2noc(-c3cc(-c4ccccc4)c(C(F)(F)F)s3)n2)c1	-0.2&7.8
Cn1cc(C(=O)OCC2CCN(CCNS(C)(=O)=O)CC2)c2ccccc21	6.2&1.9
Cc1ccsc1C(=CCCN1CCC[C@@H](C(=O)O)C1)c1sccc1C	6.5&8.2
CN1CCc2nc(C(=O)N[C@H]3C[C@H](C(=O)N(C)C)CC[C@@H]3NC(=O)C(=O)Nc3ccc(Cl)cn3)sc2C1	9.1
CS(=O)(=O)c1ccc([C@@H](CC2CCCC2)C(=O)Nc2nccs2)cc1	18.1

(continued)
SMILES	T. gondii HeLa
CC(C)Oc1ccc(C(=O)N[C@H](CNC(=O)CN(C)C)Cc2ccc(-c3cn4cccc([C@H](C)O)c4n3)cc2)cc1Cl	?
CCOc1ccccc1N=Nc1c(C)[nH]n(-c2nc(-c3ccccc3)cs2)c1=O	-0.2
CC(=O)O[C@@H]1C[C@H]2C(C)(C)C(=O)C=C[C@]2(C)[C@H]2CC[C@@]3(C)[C@H](c4ccoc4)OC(=O)[C@H]4O[C@]43[C@@]21C	26.1
O=C1NCc2c1c1c3ccccc3[nH]c1c1[nH]c3ccccc3c21	2.9
OCCn1cc(-c2cnc3nnn(Cc4ccc5ncccc5c4)c3n2)cn1	5.7
CCCCn1c(=O)c2c(ncn2CC(C)=O)n(CCCC)c1=O	-6.1
CCCCCOC(=O)Nc1nc(=O)n([C@@H]2O[C@H](C)[C@@H](O)[C@H]2O)cc1F	-62.7&-63.1
Cc1cc(-c2ccc(CC(=O)Nc3ccc(-c4cccnc4)cc3)cc2)ccn1	7.0
CCCCN1CCC(CCC(=O)c2cc(Cl)c(N)cc2OC)CC1	-1.5&-0.1
COC(=O)C1=C(C)NC(C)=C(C(=O)OCCSc2ccccc2)C1C (stereo not given)	-6.1&11.3
CCCCCCNC(=O)n1cc(F)c(=O)[nH]c1=O	-97.3*
COc1cc(-c2coc3cc(OC)c(OC)c(OC)c3c2=O)cc(OC)c1OC	10.8
C=CC(=O)Nc1cc2c(Nc3ccc(F)c(Cl)c3)ncnc2cc1C#CC(C)(C)N1CCN(C)CC1	-57.7
CC(C(=O)O)c1ccc(N2Cc3ccccc3C2=O)cc1 (stereo not given)	351.7
NCCCC[C@@H]1NC(=O)[C@@H](Cc2c[nH]c3ccccc23)NC(=O)[C@H](c2ccccc2)NC(=O)[C@@H]2C[C@@H](OC(=O)NCCN)CN2C(=O)[C@H](Cc2ccccc2)NC(=O)[C@H](Cc2ccc(OCc3ccccc3)cc2)NC1=O	9.1
C[C@@H]1CC[C@@]2(OC1)O[C@H]1C[C@H]3[C@@H]4CC=C5C[C@@H](O)CC[C@]5(C)[C@H]4CC[C@]3(C)[C@H]1[C@@H]2C	6.2
CC#CCOC(=O)C1=CCCN(C)C1	13.5&10.4
CC(=O)N(CC(C)C(=O)O)c1c(I)cc(I)c(N)c1I (stereo not given)	9.5
CCOc1cc(N)c(Cl)cc1C(=O)NCC1CN(Cc2ccc(F)cc2)CCO1 (stereo not given)	24.2
CN(C[C@@H]1COCCO1)S(=O)(=O)Nc1ccc2ccc3ncc(-c4cnn(C)c4)cc3c(=O)c2c1	-34.7
C[C@@H]1O[C@@H](O[C@H]2[C@H](Oc3cc(O)c4c(c3)O[C@H](c3ccc(O)cc3)CC4=O)O[C@H](CO)[C@@H](O)[C@@H]2O)[C@H](O)[C@H](O)[C@H]1O	1.8
OC(CCCN1CCN(c2ncc(F)cn2)CC1)c1ccc(F)cc1 (stereo not given)	7.4&16.0
COC1CCC(N(C(=O)C2CCC(C)CC2)c2cc(C3=CCCCC3)sc2C(=O)O)CC1 (stereo not given)	5.3
CN(C(=O)c1ccc(F)cc1C(F)(F)F)C1CCN(c2nnc(-c3ccnn3C)c3ccccc23)CC1	6.9
CC(=O)Nc1ccc(S(=O)(=O)Nc2onc(C)c2C)cc1	6.5
Cc1cnc(CNC(=O)c2c(=O)c3ccc(N4CCCN(C)CC4)nc3n3c2sc2ccccc23)cn1	-82.2*
O=[N+]([O-])c1cc(Cl)ccc1S(=O)(=O)N1CCN(Cc2ccccc2)CC1	26.6
CC(=O)C(C#N)C(=O)Nc1cc(Br)ccc1Br (stereo not given)	12.8&-2.2
Cn1cc(-c2ccncc2)c(-c2ccc(OCc3ccc4ccccc4n3)cc2)n1	-67.7
CCCS(=O)(=O)Nc1ccc(F)c(C(=O)c2c[nH]c3ncc(-c4ccc(Cl)cc4)cc23)c1F	-67.7&-58.2
CN1C(CCl)Nc2cc(Cl)c(S(N)(=O)=O)cc2S1(=O)=O (stereo not given)	13.5&11.4
O=C(O)c1cc(=O)c2c(OCC(O)COc3cccc4oc(C(=O)O)cc(=O)c34)cccc2o1	6.2&6.2
Cc1c(C(=O)N(C)C2CCCCC2)sc2nc3ccc(N)cc3n12	5.0
COc1c(O[C@@H]2O[C@H](CO)[C@@H](O)[C@H](O)[C@H]2O)cc2c(c1OC)-c1ccc(SC)c(=O)cc1[C@@H](NC(C)=O)CC2	3.1
C[C@@H]1CN(Cc2ccc(F)cc2)[C@@H](C)CN1C(=O)c1cc2c(C(=O)C(=O)N(C)C)cn(C)c2cc1Cl	-1.8
CCc1c(Cl)c(O)c(Cl)c(O)c1C(=O)O[C@H]1[C@H](O)[C@H](OC)[C@H](OCC2=C/C=C/C[C@H](O)/C(C)=C\[C@H](CC)[C@H](O[C@@H]3OC(C)(C)[C@@H](OC(=O)C(C)C)[C@H](O)[C@H]3O)/C(C)=C\C(C)=C\C[C@H]([C@@H](C)O)OC2=O)O[C@@H]1C	16.6
CCCCCCOc1ccccc1C(N)=O	31.8&29.7
C[N+](C)(CCOc1ccccc1)Cc1ccccc1	13.6
Cc1cc(O)c(C=O)c2c1C(=O)Oc1c(C)c(O)c3c(c1O2)C(O)OC3=O (stereo not given)	-75.6*
CC1(C)CCC(C)(C)c2cc(C3(c4ccc(C(=O)O)cc4)OCCO3)ccc21	4.8
C=C1C2CC[C@@]3(C)[C@H](c4ccoc4)OC(=O)C[C@]13O[C@H]1CC(=O)C(C)(C)[C@H](C(O)C(=O)OC)[C@@]21C (stereo not given in full)	-2.5
CCCCC(C)(C)[C@H](O)/C=C/[C@H]1[C@H](O)CC(=O)[C@@H]1C/C=C\CCCC(=O)O	16.3
C#C[C@]1(O)CC[C@H]2[C@@H]3CCc4cc(OC)ccc4[C@H]3CC[C@@]21C	9.2
CCOc1cc(/C=C(/C#N)C(N)=O)cc(CSc2ccccc2)c1O	32.6
NC(CC(F)C(=O)O)C(=O)O (stereo not given)	4.9
CCCCC(C=O)NC(=O)C(CC(C)C)NC(=O)OCc1ccccc1 (stereo not given)	10.2
CC(=O)Nc1cccc2c1c(Sc1ccc(Cl)cc1)c(C)n2CC(=O)O	-1.0
O[C@@H]1[C@H](O)[C@@H](CCl)O[C@H]1n1cnc2c(NC3CC4CCC3C4)ncnc21 (stereo not given in full)	20.5
